hNpr1 antagonist: blocks ANP-stimulated signaling of human Npr1 receptor. Potency, µM (highest dose often 46.3 µM), inactives show at the top dose activity change, negative = inhibition, most hits filed as inhibitors. HEK293 hNpr1 GloSensor cGMP, ANP-stimulated luminescence. P16066. 1.6% of 76,000 active; active = well fitted inhibition curve with a large enough effect; inconclusive = small, poorly fitted or top-dose-only effect; inactive = no such curve, though single readings can be large or run the other way;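 further: nearly all actives have a fitted effect of over 60% in size; nearly all hits also lower the signal before the agonist is added; a reference antagonist and vehicle were the controls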
Target sequence (P16066 whole entry, looked up): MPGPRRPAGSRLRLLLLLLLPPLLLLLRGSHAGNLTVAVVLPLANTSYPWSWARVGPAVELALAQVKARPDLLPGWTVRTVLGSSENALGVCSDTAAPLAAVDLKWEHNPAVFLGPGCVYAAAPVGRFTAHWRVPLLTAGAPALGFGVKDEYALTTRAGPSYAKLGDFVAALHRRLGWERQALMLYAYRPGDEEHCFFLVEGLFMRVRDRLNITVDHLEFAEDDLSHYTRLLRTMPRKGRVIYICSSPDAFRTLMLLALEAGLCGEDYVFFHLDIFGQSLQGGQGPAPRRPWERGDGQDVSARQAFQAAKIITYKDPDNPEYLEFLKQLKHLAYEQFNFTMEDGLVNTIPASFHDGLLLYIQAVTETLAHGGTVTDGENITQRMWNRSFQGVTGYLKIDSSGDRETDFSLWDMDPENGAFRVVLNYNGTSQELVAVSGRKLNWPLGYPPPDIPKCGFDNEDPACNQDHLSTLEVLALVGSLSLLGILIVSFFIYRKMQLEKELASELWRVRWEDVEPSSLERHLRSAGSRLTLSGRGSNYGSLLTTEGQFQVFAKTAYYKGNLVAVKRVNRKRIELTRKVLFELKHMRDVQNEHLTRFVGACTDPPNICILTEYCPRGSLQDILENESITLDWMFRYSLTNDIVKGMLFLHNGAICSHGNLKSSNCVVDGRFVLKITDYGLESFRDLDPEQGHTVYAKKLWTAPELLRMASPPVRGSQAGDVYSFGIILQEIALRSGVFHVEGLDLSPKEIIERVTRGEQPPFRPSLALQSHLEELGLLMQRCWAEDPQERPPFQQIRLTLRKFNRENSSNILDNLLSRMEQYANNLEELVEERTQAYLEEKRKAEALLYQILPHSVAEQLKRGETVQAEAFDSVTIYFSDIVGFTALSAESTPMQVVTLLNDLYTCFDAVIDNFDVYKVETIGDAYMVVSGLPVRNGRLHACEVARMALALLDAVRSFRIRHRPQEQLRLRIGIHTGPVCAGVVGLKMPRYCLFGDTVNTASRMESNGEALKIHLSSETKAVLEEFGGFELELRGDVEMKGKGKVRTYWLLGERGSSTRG
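Compound pre-incubated 30 min at room temperature on GloSensor-loaded HEK293 cells stably carrying hNpr1 and the pGS-40F cGMP biosensor. Stimulation uses hNppA at 0.1 nM final; luminescence is taken at baseline and 20 min post-agonist.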
An asterisk follows results filed as active; ? = inconclusive; [ ] = another dose, or the depositor's remark. On the % scale 0 is the no-effect control and ±100 the full control effect; potency means the concentration at half of the fitted maximal effect. Some of the compounds tested; the hit share may differ from the screen's.

SMILES	hNpr1 antagonist
CCc1nccn1CCC(=O)N[C@H]1CN(C(=O)COC)C[C@@H]1C1CC1	0%
O=C(NCCc1ccccc1)N1CCCC(Cn2c(C3CC3)nc3cccnc32)C1 (configuration not stated)	-3%
COc1ccc(C)cc1NC(=O)C1CCN(C(=O)c2ncn3c2COC(c2ccc(F)cc2)C3)CC1 (configuration not stated)	-25%
COCC(=O)N[C@H](C)c1onc(C)c1C(=O)O	3%[70.6 µM]
COc1ncccc1-c1cc(-c2c(C)noc2C)c2cncn2c1	2%[70.6 µM]
O=C(c1ccc2cc[nH]c2c1)N1CCCC(Cc2noc(-c3ccccn3)n2)C1 (configuration not stated)	12%
Cc1ccc(C2=NC3(CCN(C(=O)c4ccoc4)CC3)ON2)cc1	-18%
CN(C)C(=O)c1cccnc1OC1CCN(C(=O)c2ccccc2)C1 (configuration not stated)	7%
CCNC(=O)N(C1CC1)C1CCOC2(CCN(C(=O)CCc3ccc(OC)cc3)CC2)C1 (configuration not stated)	-1%
Cc1cnn(CC(=O)N2CCC3(CC2)CN(c2ncccn2)CC3CO)c1 (configuration not stated)	2%
O=C(NCCc1ccccc1)C1CC(=O)N(c2n[nH]c3cccc(F)c23)C1 (configuration not stated)	6%
COc1cccc(S(=O)(=O)N2CCc3nnc([C@@H]4C[C@@H](O)CN4C)n3CC2)c1	5%
CC(C)(C)NC(=O)N1CCC2(CC1)CC(N1CCN(c3ccccc3)CC1)CCO2 (configuration not stated)	12%
CN1CCc2[nH]cnc2C12CCN(C(=O)CN1C(=O)CNC1=O)CC2	2%
COCCNC(=O)N[C@@H]1CN(Cc2ccccc2)C[C@H]1CN(C)C	0%
CCN1CCCC1Cn1ccnc1-c1cc2n(n1)CCCNC2 (configuration not stated)	-3%
COc1cccc(NC(=O)c2ccc(CN3C(=O)NC4(CCOCC4)C3=O)cc2)c1	-3%
NC(=O)COC[C@@H]1CN(Cc2ccccc2)C[C@H]1c1ccncc1	-13%
COc1ccc(CN2C(=O)[C@@H]3C[C@@H](O)CN3C3(CN(C4CCCC4)C3)C2=O)cc1	5%[70.6 µM]
O=C(c1ccncc1)N1CC(Oc2ccc(-c3noc(-c4ccccc4)n3)cc2)C1	-20%
COc1ccccc1-c1ccc2ncn(Cc3ccccc3)c(=O)c2n1	3%[70.6 µM]
CS(=O)(=O)c1ccc(CN2CCC(O)(Cn3ccnc3)CC2)cc1	3%
O=c1[nH]c(C2CCN(Cc3ccccc3)CC2)nc2ccc(F)cc12	1%[70.6 µM]
COCCN(C)C[C@H]1C[C@H](CO)CN(C(=O)c2ccc(C(C)C)[nH]c2=O)C1	-1%
Cc1nc(C2(C)CCN(C(=O)CCc3nc4ccccc4[nH]3)CC2)no1	-18%
CCc1ccccc1S(=O)(=O)N1CCCC(Cn2c(C3CC3)nc3cccnc32)C1 (configuration not stated)	-19%
CC(=O)N1CCC(C(=O)N2CC(c3ccccc3)C(C)(C)C2)CC1 (configuration not stated)	3%
Cc1nc([C@H]2CCN(CC3CCCCC3)C[C@H]2NC(=O)C2CCOCC2)n[nH]1	3%
Cc1ccc(NC(=O)N(C)CC2CCOCC2)cc1F	0%
Cc1cc(C(=O)N2CC(Oc3ccc(-c4nc(-c5ccccc5)no4)cc3)C2)n(C)n1	5.6µM*
COCCNC(=O)C(C)[C@@H]1CC[C@@]2(C)CC[C@H](NC(=O)CCOC)[C@@H](C)[C@@H]2[C@H]1O (some centres not stated)	5%[70.6 µM]
COc1ccc2[nH]c3c(c2c1)CCNC31CCN(Cc2ccc(F)c(F)c2)CC1	-12%
COc1ccc(-c2cc(N3CCCN(C(=O)Cc4ccc(Cl)cc4)CC3)n[nH]2)cc1	-26%
O=C(NCc1ccccc1)c1ccccc1OC1CN(Cc2ccsc2)C1	-28%
Cc1ccc2nc(CO[C@H]3CN(Cc4ccc(F)c(F)c4)C[C@H]3F)[nH]c2c1	-27%[70.6 µM]
O=C(CC1COCCN1)NCCc1nc(-c2ccccn2)no1 (configuration not stated)	3%
CCN1CCC2(CCC1=O)CN(Cc1cccc(Cl)c1F)CCN2C (configuration not stated)	2%
Cc1c(-c2ccccc2F)[nH]c2ccc(CNC(=O)CC3CCC(=O)N3)cc12 (configuration not stated)	1%
c1cc2c(cc1CNC1(Cc3cc(CN4CCCCC4)on3)COC1)OCO2	-1%[70.6 µM]
CCOc1ncccc1C(=O)N1CCc2[nH]nc(-c3cccc(F)c3)c2C1	-10%
COc1ccc2cc(C3CN(C(=O)c4cccc(CO)n4)CCO3)ccc2c1 (configuration not stated)	?
Cn1nc(C(=O)N2CCC3(CC2)N=C(c2ccc(Br)cc2)NO3)c2ccccc21	?
CN(C)c1nc(NCCNS(=O)(=O)c2ccc(Cl)cc2)ncc1F	-18%
O=C(CC1CCOC2(CCN(Cc3cccs3)CC2)C1)NC1CC1 (configuration not stated)	1%
CCOCCCNC(=O)N1CCc2c(c(-c3nncn3Cc3ccccc3)nn2C)C1	4%
CCN1c2cc(C(=O)Nc3ccc(OC(F)(F)F)cc3)ccc2C(=O)N2CCCCC21 (configuration not stated)	-1%
O=C1CC(c2ccccc2)N(C(=O)CNC(=O)C2CCCCC2)CCCCCN1 (configuration not stated)	2%
COc1ccccc1CCC(=O)N1CCC(Cc2nc(-c3cnccn3)no2)CC1	6%
CC(=O)Nc1cccc(-c2cc(-c3c(C)noc3C)c3cncn3c2)c1	-20%[70.6 µM]
COc1cccc(-c2nc(C3CC(=O)N(c4ccc(C)cc4)C3)no2)c1OC (configuration not stated)	0%
C#CCNC(=O)C[C@@H]1O[C@H](CNC(C)=O)[C@@H](O)[C@H]1O	3%[70.6 µM]
O=C(c1cccc(F)c1)N1CCC(Cc2nc(C3CCOCC3)no2)CC1	?
CC1=C(C(=O)OC(C)C)C(c2ccccc2F)N2C(CC(=O)N3CCCC3)=CSC2=N1 (configuration not stated)	?
Cn1cc(C#N)cc1C(=O)N1C[C@H](CO)C[C@H](CN2CCOCC2)C1	15%
O=C(NCc1nc(-c2ccncc2)n[nH]1)C1CCCN(C2CCCC2)C1 (configuration not stated)	0%
CC(C)(C)NC(=O)c1ccc(-c2nnc3ccc(NC(=O)C4CC4)cn23)cc1	0%
CN1CCC(N2CCN(C(=O)C3CCCN(S(C)(=O)=O)CCC(=O)NCC3)CC2)CC1 (configuration not stated)	7%
O=C(NC1CCCC1)N1CCc2nnc(C3CC3)n2CC1	1%
O=C(c1n[nH]c(=O)c2ccccc12)N1CCC(Cc2noc(C3CCOCC3)n2)C1 (configuration not stated)	-3%
CCc1ccc(NC(=O)N2C[C@@H](F)C[C@H]2C(=O)N2CCc3ccccc3C2)cc1	1%
(list continues)
SMILES	hNpr1 antagonist
COc1ccccc1-c1cnc(Nc2ccc3c(c2)OCCO3)c2c1CCO2	?
CC(C)NC(=O)N(C1CC1)C1CCOC2(CCN(C(=O)Nc3ccccc3F)CC2)C1 (configuration not stated)	-1%
CC1CCCN1C(=O)c1cc(-c2cnn(C(C)C)c2)nc2cc(F)ccc12 (configuration not stated)	-6%
CS(=O)(=O)Nc1cc(-c2noc([C@@H]3CCCN3Cc3ccccc3)n2)ccn1	2%[70.6 µM]
CCOc1nccn2c(-c3ccc(CN4CCN(C(C)=O)CC4)cc3)cnc12	0%[70.6 µM]
Cc1ccc2c(c1)N1C(=O)OC[C@@H]1CCN(C(=O)CC(C)C)C2	2%[70.6 µM]
O=C1CCC[C@@H]2C3CC(CN(C4CCN(C(=O)C5(c6ccccc6)CC5)CC4)C3)CN12 (some centres not stated)	-8%
CCN(CC)c1cc(CCC(=O)N(C)Cc2ccccc2)ccn1	-20%
O=C1[C@H]2CN(Cc3ccccc3Cl)C[C@H]2C(=O)N1CCN1CCc2ccccc2C1	-17%
O=C1[C@@H]2C[C@@H](CN2C(=O)c2cncnc2)Oc2ccccc2N1Cc1ccc(OC(F)(F)F)cc1	4%
CCn1cc(S(=O)(=O)N2CC[C@H](c3nc(C)no3)[C@H](NC(=O)C3CC3)C2)cn1	1%
COCC(=O)N(C1CCOCC1)C1CCN(C(=O)Cc2ccc(Cl)cc2)CC1	-3%

Rewritten with values ahead of the structure: 19 of the compounds above
| hNpr1 antagonist | Compound |
| --- | --- |
| 3%[70.6 µM] | C#CCNC(=O)C[C@@H]1O[C@H](CNC(C)=O)[C@@H](O)[C@H]1O |
| ? | O=C(c1cccc(F)c1)N1CCC(Cc2nc(C3CCOCC3)no2)CC1 |
| ? | CC1=C(C(=O)OC(C)C)C(c2ccccc2F)N2C(CC(=O)N3CCCC3)=CSC2=N1 (configuration not stated) |
| 15% | Cn1cc(C#N)cc1C(=O)N1C[C@H](CO)C[C@H](CN2CCOCC2)C1 |
| 0% | O=C(NCc1nc(-c2ccncc2)n[nH]1)C1CCCN(C2CCCC2)C1 (configuration not stated) |
| 0% | CC(C)(C)NC(=O)c1ccc(-c2nnc3ccc(NC(=O)C4CC4)cn23)cc1 |
| 7% | CN1CCC(N2CCN(C(=O)C3CCCN(S(C)(=O)=O)CCC(=O)NCC3)CC2)CC1 (configuration not stated) |
| 1% | O=C(NC1CCCC1)N1CCc2nnc(C3CC3)n2CC1 |
| -3% | O=C(c1n[nH]c(=O)c2ccccc12)N1CCC(Cc2noc(C3CCOCC3)n2)C1 (configuration not stated) |
| 1% | CCc1ccc(NC(=O)N2C[C@@H](F)C[C@H]2C(=O)N2CCc3ccccc3C2)cc1 |
| ? | COc1ccccc1-c1cnc(Nc2ccc3c(c2)OCCO3)c2c1CCO2 |
| -1% | CC(C)NC(=O)N(C1CC1)C1CCOC2(CCN(C(=O)Nc3ccccc3F)CC2)C1 (configuration not stated) |
| -6% | CC1CCCN1C(=O)c1cc(-c2cnn(C(C)C)c2)nc2cc(F)ccc12 (configuration not stated) |
| 2%[70.6 µM] | CS(=O)(=O)Nc1cc(-c2noc([C@@H]3CCCN3Cc3ccccc3)n2)ccn1 |
| 0%[70.6 µM] | CCOc1nccn2c(-c3ccc(CN4CCN(C(C)=O)CC4)cc3)cnc12 |
| 2%[70.6 µM] | Cc1ccc2c(c1)N1C(=O)OC[C@@H]1CCN(C(=O)CC(C)C)C2 |
| -8% | O=C1CCC[C@@H]2C3CC(CN(C4CCN(C(=O)C5(c6ccccc6)CC5)CC4)C3)CN12 (some centres not stated) |
| -20% | CCN(CC)c1cc(CCC(=O)N(C)Cc2ccccc2)ccn1 |
| -17% | O=C1[C@H]2CN(Cc3ccccc3Cl)C[C@H]2C(=O)N1CCN1CCc2ccccc2C1 |

Further structures follow:
SMILES	hNpr1 antagonist
COc1cccc(CCC(=O)N2CCC(Oc3ncccc3C(=O)N3CCCCC3)C2)c1 (configuration not stated)	-2%
CN1Cc2ccc(C(=O)Nc3ccc4cn[nH]c4c3)cc2OCC1=O	-2%[70.6 µM]
CC[C@H]1CN(C(=O)c2ccnc(Cl)c2)CC[C@H]1CC(=O)O	12%[70.6 µM]
O=C(c1ccc(N2CCCC2)nc1)N1CCC(N2CCOCC2)CC1	9%
Cn1ncc2c(N)nc(NC3CC(c4cc(=O)[nH]c(C5CC5)n4)C3)nc21 (configuration not stated)	4%
COc1cccc(CN2C[C@@H](CO)[C@H](NC(=O)c3ccccc3)C2)c1	-10%
COc1ccccc1-c1nc(C(=O)NC(C)C)n2ccncc12	-7%[70.6 µM]
Cc1noc2c(NC3CCC(O)CC3)cc(-c3cccnc3)nc12 (configuration not stated)	8%[70.6 µM]
Cc1ccc(NC(=O)COc2ccc(-c3nnc4n3CCCC4)cc2)cc1C	-4%
Cc1noc(-c2ccc3c(c2)OCO3)c1C(=O)NCCSCc1ccco1	-14%
CCN(CC)c1ncccc1CNC(=O)Nc1cccc(OC)c1	-6%
COc1ccc(-n2nc(C3CCN(CCC(C)C)CC3)[nH]c2=O)cc1	16%
N#Cc1ccc(S(=O)(=O)N2CCCCCNC(=O)[C@@H]3CCCC[C@@H]32)cc1	-1%
COc1ccc(-c2nc(C(C)C)nc3c2CCN(C(C)=O)CC3)cc1	3%[70.6 µM]
Cc1ccc(NS(=O)(=O)c2ccccc2)c(=O)n1CC(=O)N1CCCCC1	2%
COCc1cccc(-c2ccc3ncn(-c4ccc(F)cc4F)c(=O)c3n2)c1	4%[70.6 µM]
COc1cccc(-c2nc(-c3c(C)noc3C)cc3[nH]c(C)cc23)c1OC	1%[70.6 µM]
CCn1nccc1C(=O)N1CCC(N2C(=O)C(OCC3CC3)C23CCOCC3)CC1 (configuration not stated)	3%
